# Screening data: PubChem BioAssay, several laboratories
# Mtb hypoxia inh: PubChem AID 1159583. fluorescence inhibition, % (test concentration not listed). M. tuberculosis hypoxia-regulated fluorescent reporter, fluorescence. 300,000 tested, 0.1% active;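 active means 35 to 45% if threefold the growth effect, above 45% if 1.5-fold the growth effect; inactive means the rest, general growth blockers included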;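 further: wells of about 50 µL received 100 nL stock; 0% = vehicle wells and 100% = reference inhibitor wells; whole bacteria with a GFP reporter of the hypoxia response; strong numbers were not always called active; many hits fall short of the cut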
# BJeLR viability: MLPCN primary cell-based screen for lethality selective to Ras in HRASV12 cells. BJeLR (HRASV12) viability, CellTiter-Glo ATP luminescence, 48 h; reference of the scale not given here. inhibition, % (concentration not given with the values). 300,000 tested, 0.17% active. AID 1554, 2009;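 active means replicate mean above 50%; inconclusive means above 50% but judged a plate artefact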;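 further: 50 nL library stock added to about 25 µL; numbers are from one replicate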
# Autofluor counter: flagged as autofluorescent in microsphere protease counterscreen; compound autofluorescence counterscreen, microsphere flow cytometry; active compounds read high; fluorescence intensity (concentration not given with the values); 360,000 tested, 3.1% active;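 active means at least 3 SD above the mean of all compounds, about 16000 in these data; inconclusive means too few beads counted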;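 further: 100 nL of 1 mM stock went into each well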
# PrP UTR inh: inhibition of PrP 5' UTR reporter expression. cell-based PrP 5' UTR mRNA reporter, plate reader. inhibition, % (test concentration not listed). 340,000 tested, 0.35% active;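 active means every replicate at 50% or more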;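 further: 0 = median of the neutral control wells; tested in H4 reporter cells; numbers are from one replicate; inactives centre near -14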
# ugtP null kill: growth inhibition of ugtP-null S. aureus, primary screen, RN4220 ugtP deletion, OD600. 16 h; some inactives read as strong as hits. growth inhibition, % (concentration not given with the values). 330,000 tested, 0.54% active. AID 1259309, 2017;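 active means z-score under -3 and OD600 up to 0.15 on both plates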;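 further: plate controls were untreated wells for no effect and antibiotic for full effect; wells of about 80 µL received 100 nL stock; the first replicate is given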
# Sa RN4220 lethal: growth inhibition of S. aureus RN4220, primary screen, OD600; 16 h; inhibition, % (test concentration not listed); 330,000 tested, 0.33% active;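 active means z-score of -3 or lower and OD600 up to 0.18 on both plates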;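 further: plate controls were untreated cells for no effect and reference antibiotic for full effect; stock transfer was 100 nL into about 80 µL; one replicate is shown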
# Mtb hypoxia inh growth: further read-out of Mtb hypoxia inh, marked with its call; growth inhibition, %; measured here: M. tuberculosis growth (absorbance);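 0% = vehicle and 100% = reference antibiotic; read after six days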
# Numbers without * were called inactive; ? = inconclusive; / = not tested or not shown. Hits appear at their usual frequency; any-hit rate near 3.9%.
molecule,Mtb hypoxia inh growth,BJeLR viability,Autofluor counter,Mtb hypoxia inh,Sa RN4220 lethal,ugtP null kill,PrP UTR inh
COc1ccc(NS(=O)(=O)c2ccc(NC(=O)c3ccc(Br)cc3)cc2)nn1,4,0,4227,1,-2.3,8,-30
Cc1ccc(NC(=O)C2CCC(=O)N2C(=O)OCc2ccccc2)cc1 (configuration not stated),-8,3,3063,-1,0.7,-10,-15
O=C(COC(=O)/C=C/c1ccc(OC(F)F)cc1)NC1CCCC1,-4,/,8219,-2,3.2,4,-21
CCOC(=O)CC1OC(=O)c2cc3c(cc21)C(=O)OC3CC(=O)OCC (configuration not stated),12,-11,6137,19,5.7,8,-8
Cc1nc(NC(=O)CCCC(=O)Nc2nc(C)c(C)s2)sc1C,1,1,15767,-4,-1.2,0,-11
O=C1c2ccccc2S(=O)(=O)N1CCOc1ccc(F)cc1,-8,6,24481*,4,1.4,-3,-17
Cc1oc(-c2ccc(F)cc2)cc1-c1nn2c(-c3ccoc3C)nnc2s1,10,2,4308,7,14,-25,-13
Cc1ccc(C)c(S(=O)(=O)NCc2ccc(C(=O)N3CCCCC3C)cc2)c1 (configuration not stated),5,-2,18934*,7,3.2,15,-14
CCCCOc1ccc(C(=O)OCC(=O)Nc2cc(C)c(C)cc2[N+](=O)[O-])cc1,0,-12,2217,-2,2.9,11,-18
CCN(CC)c1ccc(C(=O)NN=C(C)c2cccc(OC)c2)cc1,5,/,/,11,5.0,-3,/
CCN(C(=O)CN(C)Cc1c(F)cccc1Cl)c1c(N)n(Cc2ccccc2)c(=O)[nH]c1=O,-3,-1,2527,10,1.4,9,-4
COc1ccc(S(=O)(=O)/N=C2/C=CC(=O)C(C)=C2C)cc1,/,-2,9105,/,/,/,-7
CCOC(=O)c1sc2nccc(OC)c2c1N=CN(C)C,1,1,3368,12,6.5,13,-30
CC(=O)Cn1nnc(-c2ccc(C(F)(F)F)cc2)n1,5,3,3597,-2,-1.9,-3,-36
CCOc1ccc(N(CC(=O)NC2CCCC2)S(=O)(=O)c2ccccc2)cc1,15,0,3698,10,3.7,4,-6
CCNC(=O)COC(=O)c1cc(C)nc2ccccc12,5,5,4212,14,2.5,16,-7
CCn1c(CNC(=O)c2ccco2)nnc1SCC(=O)Nc1ccccc1Cl,4,2,4983,-1,1.2,6,-3
O=C(O)C1CC=CCC1C(=O)Nc1ccc2c(c1)CCC2 (configuration not stated),6,10,6463,-5,0.3,0,-44
CCCCN(C(=O)c1sc2nc3n(c(=O)c2c1C)CCC3)c1c(N)n(CC(C)C)c(=O)[nH]c1=O,-2,/,5247,5,4.3,2,-11
O=C(NCCc1c[nH]c2ccccc12)c1ccc2nc[nH]c2c1,7,16,6355,11,0.6,0,-15

# Reprinted from the results shown (2 entries):
molecule,Mtb hypoxia inh growth,BJeLR viability,Autofluor counter,Mtb hypoxia inh,Sa RN4220 lethal,ugtP null kill,PrP UTR inh
CCCCN(C(=O)c1sc2nc3n(c(=O)c2c1C)CCC3)c1c(N)n(CC(C)C)c(=O)[nH]c1=O,-2,/,5247,5,4.3,2,-11
O=C(NCCc1c[nH]c2ccccc12)c1ccc2nc[nH]c2c1,7,16,6355,11,0.6,0,-15

# (listing goes on)
molecule,Mtb hypoxia inh growth,BJeLR viability,Autofluor counter,Mtb hypoxia inh,Sa RN4220 lethal,ugtP null kill,PrP UTR inh
COc1cc2c(cc1OC)C(c1cc([N+](=O)[O-])ccc1O)NCC2 (configuration not stated),-3,6,4295,11,6.8,10,-18
COc1ccc2sc(-c3ccc(N(C)C)cc3)c(C#CC(C)(C)O)c2c1,-5,/,3713,2,3.7,4,-28
CC(C)(C)C(=O)Nc1nnc(SCC(=O)NC2CC2)s1,-13,13,3844,5,-1.2,5,-12
O=C(Nc1cc(=O)[nH]c2ncnn12)c1ccccc1F,4,1,4209,1,4.1,9,4
Cc1nn(-c2ccccc2)c(Cl)c1C(=O)OCC(=O)N(C)c1c(N)n(Cc2ccccc2)c(=O)[nH]c1=O,7,5,?,-9,-3.2,-5,-28
Cc1cccc(NC(=S)N/N=C/C(C)c2ccccc2)c1C (configuration not stated),/,-13,3365,/,/,/,59*
Cc1ccc(-c2ccc(S(=O)(=O)N3CCCC3)cc2)cc1,11,/,4074,6,4.9,12,-13
CC(=O)N/C(=C/c1ccc2c(c1)OCO2)C(=O)NC(Cc1ccccc1)C(=O)O (configuration not stated),-2,0,3869,11,-0.1,-1,-36
Cc1ccc(C)c(OCC(=O)OCC(=O)Nc2c(C)nn(-c3ccccc3)c2C)c1,0,1,7270,-13,0.5,0,-8
CN(C)Cc1c(C(=O)N/N=C/c2ccncc2)nnn1-c1nonc1N,/,3,3978,/,/,/,-12
Cc1cccc(CCNC(=O)C2CCC(CNc3c(N4CCCC4)c(=O)c3=O)CC2)c1 (configuration not stated),8,2,5898,-5,3.3,5,-30
Oc1[nH]c2c(Cl)cc(Cl)cc2c1N=NC(=S)NCC1CCCO1 (configuration not stated),4,18,2080,4,18,-16,23
CN(C)C(=O)c1ccccc1NC(=O)Cc1cccc2ccccc12,9,-2,4063,3,5.5,3,-4
Cc1cc(/C(N)=N/OC(=O)Nc2ccccc2)no1,5,-9,6483,-6,1.2,2,-52
CCCCNC(=O)CN1C(=O)NC2(CCOc3ccccc32)C1=O (configuration not stated),5,2,3811,-4,0.0,3,-5
COc1ccc(NC(=O)Nc2c(SC)nsc2SC)cc1,-3,-1,4806,-4,0.7,0,-2
COc1ccccc1N(C)S(=O)(=O)c1ccc(C(=O)Nc2cc(F)ccc2C)cc1,7,/,4385,12,5.5,2,-11
Fc1ccc2cc(-c3cccnc3)ncc2c1,6,/,3583,14,12,1,-31
O=C(/C=C/c1ccc(F)cc1)NC(=S)Nc1ccccc1O,2,-1,3666,-1,0.6,17,-9
CCSc1nc2ccccc2c(=O)n1CCc1ccc(OC)c(OC)c1,/,-11,5249,/,/,/,-17

# Entries of single compounds, looked up by structure. Order of values: Mtb hypoxia inh growth | BJeLR viability | Autofluor counter | Mtb hypoxia inh | Sa RN4220 lethal | ugtP null kill | PrP UTR inh
# `CCSc1nc2ccccc2c(=O)n1CCc1ccc(OC)c(OC)c1` is listed with / | -11 | 5249 | / | / | / | -17
# `CC(=O)N/C(=C/c1ccc2c(c1)OCO2)C(=O)NC(Cc1ccccc1)C(=O)O` (configuration not stated) is listed with -2 | 0 | 3869 | 11 | -0.1 | -1 | -36
# `CCCCNC(=O)CN1C(=O)NC2(CCOc3ccccc32)C1=O` (configuration not stated) is listed with 5 | 2 | 3811 | -4 | 0.0 | 3 | -5
# `O=C(Nc1cc(=O)[nH]c2ncnn12)c1ccccc1F` is listed with 4 | 1 | 4209 | 1 | 4.1 | 9 | 4
# `COc1ccc(NC(=O)Nc2c(SC)nsc2SC)cc1` is listed with -3 | -1 | 4806 | -4 | 0.7 | 0 | -2

# Continuation.
molecule,Mtb hypoxia inh growth,BJeLR viability,Autofluor counter,Mtb hypoxia inh,Sa RN4220 lethal,ugtP null kill,PrP UTR inh
CCN(C(=O)COC(=O)C1CCN(S(=O)(=O)c2c(Cl)cccc2Cl)CC1)C1CCCCC1,11,3,5921,11,-2.3,1,-23
CC[C@@]12C(=O)N(c3ccc(C)cc3)C(=O)N1C(c1cccc(C)c1)C1C(=O)N(Cc3ccccc3)C(=O)C12 (some centres not stated),8,/,/,10,1.7,-12,/
CC1CCN(C(=O)COC(=O)CCC(=O)c2ccc(Cl)cc2)CC1,0,/,5539,2,2.9,7,-5
NC(=O)COC(=O)CC12CC3CC(CC(Br)(C3)C1)C2,4,-4,4235,8,5.3,6,-18
COc1cccc(CN2CCN(Cc3[nH]c4ccccc4c3C)CC2CCO)c1 (configuration not stated),1,-5,2291,-5,0.1,-8,-17
Cc1c(NS(=O)(=O)c2ccc(N=NN(C)C)cc2)c(=O)n(-c2ccccc2)n1C,14,-6,3564,15,4.1,11,-16
CCCC(=O)Nc1cccc(NC(=O)c2ccc([N+](=O)[O-])cc2Cl)c1,2,4,2097,-3,3.4,3,-14
CC1CCN(Cc2nc(Cl)c3c4c(sc3n2)CCC4)CC1,11,2,4499,4,2.9,2,-5
COc1cc2c(cc1O)CC1NCCc3cc4c(c-2c31)OCO4 (configuration not stated),5,/,/,0,5.2,14,/
COc1cc(C(=O)NCC(=O)N/N=C/c2ccco2)cc(OC)c1OC,/,-4,4516,/,/,/,-3
CCc1ccc(OCCn2ccnc2)cc1,6,2,3449,14,1.8,8,-26
Cc1cc(C)c(S(=O)(=O)c2ccccc2F)c(=O)[nH]1,12,-7,3099,9,3.1,-1,-19
CCC(C)N(C(=O)CCC(=O)Nc1cc(C)on1)C(C(=O)NC(C)(C)C)c1ccccc1Cl (configuration not stated),2,-15,3675,-3,1.3,4,-17
CN(C)C(=O)CCc1nc2sc3c(c2c(=O)[nH]1)CCCC3,-12,-6,8288,-13,-2.4,-6,-25
O=C(CNc1cccc2ccccc12)N/N=C/c1ccc(OC(=O)/C=C/c2ccco2)cc1,/,4,2844,/,/,/,-35
Cc1cnc(=O)[nH]c1SCC(=O)c1ccc(F)cc1,-5,-3,5005,-5,2.0,3,-23
COC(=O)c1cc(C)sc1NC(=O)CCCC(=O)O,8,-13,3469,9,11,-8,-26
CCOC(=O)N1CCN(C(=O)Cn2cc3c(n2)CCCC3)CC1,-3,4,2922,4,-15,-7,-16
CCOc1ccc(CNCCc2ccc(S(N)(=O)=O)cc2)cc1,4,-5,4153,3,5.7,-3,-34
O=C(Cc1c(O)c2ccccc2oc1=O)c1ccc(F)cc1,6,/,3916,9,4.0,1,-30

# In the list so far, these have bromine.
molecule,Mtb hypoxia inh growth,BJeLR viability,Autofluor counter,Mtb hypoxia inh,Sa RN4220 lethal,ugtP null kill,PrP UTR inh
COc1ccc(NS(=O)(=O)c2ccc(NC(=O)c3ccc(Br)cc3)cc2)nn1,4,0,4227,1,-2.3,8,-30
NC(=O)COC(=O)CC12CC3CC(CC(Br)(C3)C1)C2,4,-4,4235,8,5.3,6,-18

# (continued)
molecule,Mtb hypoxia inh growth,BJeLR viability,Autofluor counter,Mtb hypoxia inh,Sa RN4220 lethal,ugtP null kill,PrP UTR inh
COc1cc(NC(=O)c2ccc(C)cc2)c(OC)cc1NC(=O)CN1CCOCC1,4,-5,2730,2,-8.7,0,-14
Cc1cc(C)c(-c2csc(NC(=O)/C=C/c3cccs3)n2)c(C)c1,1,2,2019,-5,-13,-11,-18
Cc1nc(-c2ccc(S(=O)(=O)NCC3CCN(C(=O)OC(C)(C)C)CC3)s2)cs1,-4,2,4402,7,0.3,1,-18
O=C(NNC(=O)c1ccccc1O)c1ccc(S(=O)(=O)Nc2ccccc2F)cc1,3,-7,?,0,5.0,-2,10
COc1cc(C=NOCC(=O)Nc2cc(C)on2)ccc1OCc1ccccc1,-2,/,/,2,1.1,4,/
CCC1(c2ccc(N)cc2)CCC(=O)NC1=O (configuration not stated),10,1,5382,8,5.0,4,-5
Cc1cc(NC(=O)Cn2nnc3sc4c(c3c2=O)CCCC4)no1,2,0,17027*,1,-0.9,1,-20
Cc1cc(NC(=O)Nc2ccc(F)cc2)no1,8,0,2921,8,0.2,4,-6
O=C(c1ccccc1)c1cccn1CC(=O)N1CCN(c2ccc(F)cc2)CC1,7,0,2380,14,6.0,-1,-4
CCOC(=O)CSc1nc(C)c(C(C)=O)cc1C(N)=O,-9,0,4516,14,7.3,10,-14
CC(=O)Nc1ccc(NC(=O)CSc2nc3ccccc3o2)cc1,8,-3,9299,10,1.3,1,-7
COc1ccc(-c2nnn(Cc3ccccc3)n2)cc1,6,8,4072,13,1.2,9,-33
O=C(Nc1ccc2oc(-c3ccccc3Cl)nc2c1)c1ncn[nH]1,-3,-2,11071,-3,7.5,-4,-92
CCCCc1ccc(NC(=O)N2CCN(c3cc(C)nc4ccccc34)CC2)c(C)c1,-6,4,2824,-7,-4.0,-4,-15
COc1ccc([C@H]2CC(=O)C=C(c3cc(C(F)(F)F)cc(C(F)(F)F)c3)C2)cc1,9,/,3544,6,-13,7,-16
